# BJeLR lethal: BJeLR cell viability loss; 0.17% of 300,000 active; inhibition, % (test concentration not listed); BJeLR (HRASV12) viability, CellTiter-Glo ATP luminescence, 48 h; reference of the scale not given here;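 active = replicate mean above 50%; inconclusive = above 50% but judged a plate artefact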;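 note: 50 nL library stock added to about 25 µL; numbers are from one replicate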
# Mtb hypoxia rep: reduces hypoxia-regulated biosensor signal in M. tuberculosis; 0.1% of 300,000 active; fluorescence inhibition, % (no concentration beside the values); M. tuberculosis hypoxia-regulated fluorescent reporter, fluorescence; AID 1159583;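 active = 35 to 45% if threefold the growth effect, above 45% if 1.5-fold the growth effect; inactive = the rest, general growth blockers included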;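 note: wells of about 50 µL received 100 nL stock; 0% = vehicle wells and 100% = reference inhibitor wells; whole bacteria with a GFP reporter of the hypoxia response; strong numbers were not always called active; many hits fall short of the cut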
# ugtP null kill: growth inhibition of S. aureus ugtP deletion strain; S. aureus RN4220 ugtP deletion, OD600 growth, 16 h; some inactives read as strong as hits; growth inhibition, % (no concentration beside the values); 0.54% of 330,000 active;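 active = z-score under -3 and OD600 up to 0.15 on both plates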;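 note: plate controls were untreated wells for no effect and antibiotic for full effect; wells of about 80 µL received 100 nL stock; the first replicate is given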
# Sa RN4220 lethal: kills Staphylococcus aureus RN4220. S. aureus RN4220 growth, OD600, 16 h. inhibition, % (concentration not given with the values). 0.33% of 330,000 active. AID 1259311;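 active = z-score of -3 or lower and OD600 up to 0.18 on both plates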;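 note: plate controls were untreated cells for no effect and reference antibiotic for full effect; stock transfer was 100 nL into about 80 µL; one replicate is shown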
# PrP UTR inh: suppresses PrP 5' UTR mRNA reporter expression; 0.35% of 340,000 active; AID 488862; inhibition, % (no concentration beside the values); cell-based PrP 5' UTR mRNA reporter, plate reader;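 active = every replicate at 50% or more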;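 note: 0 = median of the neutral control wells; tested in H4 reporter cells; numbers are from one replicate; inactives centre near -14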
# Autofluor counter: counter-screen for toxin protease inhibitors: compound fluorescence | compound autofluorescence counterscreen, microsphere flow cytometry; active compounds read high | fluorescence intensity (concentration not given with the values) | 3.1% of 360,000 active | AID 624483;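 active = at least 3 SD above the mean of all compounds, about 16000 in these data; inconclusive = too few beads counted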;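 note: 100 nL of 1 mM stock went into each well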
# Mtb hypoxia rep growth: recorded beside Mtb hypoxia rep, whose call it bears; growth inhibition, %; measured here: M. tuberculosis growth (absorbance);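 0% = vehicle and 100% = reference antibiotic; read after six days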
# Active calls of the source: *; u = inconclusive; x = not tested or not shown.
SMILES,BJeLR lethal,Mtb hypoxia rep,Mtb hypoxia rep growth,ugtP null kill,Sa RN4220 lethal,PrP UTR inh,Autofluor counter
CNC(=S)NNC(=O)c1cccn(Cc2ccccc2)c1=O,4,13,7,8,3.4,-15,4622
O=C(O)/C=C/C(=O)Nc1nccs1,3,9,4,-10,3.1,-22,3033
COc1ccc(OC)c(NC(=O)CN2C(=O)COc3ccc(S(=O)(=O)N4CCCC4)cc32)c1,-4,3,-4,4,3.3,3,5186
O=C(NCC1CC1)Nc1cccs1,-3,7,-2,3,-2.3,-15,x
COc1ccc(C2Nc3ccc(Br)cc3C(c3ccccc3)N2CC(=O)O)cc1 (centres undefined),-18,-2,-9,-2,-6.6,-6,4271
C=CCNC(=O)CSc1nnc(-c2ccccc2Cl)n1-c1c(C)n(C)n(-c2ccccc2)c1=O,-7,-4,9,0,6.3,-6,10688
c1ccc(-c2csc(Nc3ccc4c(c3)OCCO4)n2)cc1,1,x,x,12,-11,-110,3166
Cc1cc(OCC(=O)N(Cc2ccco2)C2CCS(=O)(=O)C2)cc(C)c1Cl (centres undefined),7,18,10,-5,4.0,-27,u
Cc1cnc(C(=O)OCC(=O)Nc2ccc(Br)c(C)c2)cn1,x,8,-1,0,0.4,-13,3598
COc1ccc(CNC(=O)CN(C)Cc2ccc(SC)cc2)cc1,-2,5,2,6,1.3,-13,5761
CCCOc1ccc(N)cc1N,6,x,x,-6,4.5,-18,1176
Cc1ccc(N/N=C2\COC(C)(C)CC2=O)cc1,-12,x,x,x,x,-27,2585
O=C(N/N=C/c1oc(O)c2ccccc12)c1ccccc1O,-7,x,x,x,x,-28,1976
CCOC(=O)CNC(=O)CSc1nc(NCc2ccccc2)nc(N(C)C)n1,-4,x,x,-1,2.3,-25,4232
Cc1ccccc1CNC(=O)c1ccccc1,-3,x,x,6,5.2,-26,8149
Cc1nnc(NC(=O)Cc2ccc(OCc3c(C)noc3C)cc2)s1,-2,1,4,1,0.9,-16,17361*
CCOC(=O)C1=C(O)C(=O)N(Cc2ccccc2)C1,-5,11,11,2,8.3,-37,3676
Cc1ccccc1NC(=O)Cc1nc(COC(=O)c2ncc(Cl)c(Cl)c2Cl)cs1,x,-10,-13,5,2.6,-12,6013
Cc1nnc2n1N=C(c1ccccc1)CS2,0,1,2,2,2.1,-14,3769
CCn1c(SCc2c(Cl)cccc2Cl)nnc1-c1nn(-c2ccccc2)ccc1=O,-8,x,x,-5,17,-5,4933
CCOP(=O)(OCC)C(NC(=O)CN1C(=O)c2ccccc2S1(=O)=O)C(Cl)(Cl)Cl (centres undefined),-3,2,2,7,-0.4,-20,1822
CC(/C=N/NC(=O)c1cc(-c2cccs2)[nH]n1)=C\c1ccccc1,-4,x,x,x,x,-41,2200
CC(C)(C)C(=O)Cn1ncc(N2CCCC2)c(Br)c1=O,-1,x,x,-3,3.8,-41,4398
Cc1cc(OC(=O)c2cccc(C(F)(F)F)c2)c([N+](=O)[O-])c(=O)[nH]1,-5,2,5,-2,1.2,-19,6106
O=C(C1CCCCC1)N1CCN(C(=O)C2CCCCC2)CC1,-2,7,10,-2,1.4,-10,9178
O=C(CC1COc2ccccc2O1)Nc1ccccn1 (centres undefined),-5,17,7,0,-6.6,-21,3290
Nc1nc(NCCCN2CCOCC2)nc(Nc2cccc(F)c2)c1[N+](=O)[O-],-3,0,5,5,5.6,-13,3400
COc1ccc(-c2csc(COC(=O)C(C)(C)C)n2)cc1,4,16,6,27,7.1,-43,3932
CSc1ccccc1NC(=O)Nc1cccc2ccccc12,x,3,7,8,4.0,-6,4919
NC(=O)c1ccccc1OCC(=O)Nc1ccc(Cl)c(Cl)c1,-5,-4,-9,-1,1.4,-63,4134

# Ordered by SMILES length (descending): part of the list above
SMILES,BJeLR lethal,Mtb hypoxia rep,Mtb hypoxia rep growth,ugtP null kill,Sa RN4220 lethal,PrP UTR inh,Autofluor counter
COc1ccc(-c2csc(COC(=O)C(C)(C)C)n2)cc1,4,16,6,27,7.1,-43,3932
CSc1ccccc1NC(=O)Nc1cccc2ccccc12,x,3,7,8,4.0,-6,4919
O=C(CC1COc2ccccc2O1)Nc1ccccn1 (centres undefined),-5,17,7,0,-6.6,-21,3290

# Of the compounds above, these contain a COOH group:
SMILES,BJeLR lethal,Mtb hypoxia rep,Mtb hypoxia rep growth,ugtP null kill,Sa RN4220 lethal,PrP UTR inh,Autofluor counter
O=C(O)/C=C/C(=O)Nc1nccs1,3,9,4,-10,3.1,-22,3033
COc1ccc(C2Nc3ccc(Br)cc3C(c3ccccc3)N2CC(=O)O)cc1 (centres undefined),-18,-2,-9,-2,-6.6,-6,4271

# Carrying on:
SMILES,BJeLR lethal,Mtb hypoxia rep,Mtb hypoxia rep growth,ugtP null kill,Sa RN4220 lethal,PrP UTR inh,Autofluor counter
C=CCNC(=O)C(=O)N/N=C/c1cccc(Br)c1,1,x,x,x,x,-19,4122
O=c1c2cnn(-c3ccc(F)cc3)c2ncn1Cc1ccccc1,5,x,x,-1,-7.3,-25,3251
CCCNC1CCS(=O)(=O)C1 (centres undefined),12,x,x,2,-0.6,-15,4726
O=C(N/N=C/c1ccccc1)c1sccc1OCc1ccc(F)cc1,7,x,x,x,x,0,2645
CCc1ccc(C(=O)OCC(=O)N2CCCCCC2)cc1,x,6,-5,10,1.5,-28,9440
COc1cccc(CNC(=O)[C@H](CC(C)C)NC(=O)N2CCn3c2nc2ccccc23)c1,0,10,5,-1,4.4,-9,5885
Cc1cc(C)n(-c2ccc(C(=O)Nc3ccc(S(=O)(=O)NCc4ccco4)cc3)cc2)n1,4,0,11,-8,-7.4,-21,4220
O=C(CN1C(=O)C2CCCN2c2ncc(Cl)cc21)NCc1ccc2c(c1)OCO2 (centres undefined),x,-7,11,-14,2.8,-21,3689
Cc1ccccc1NC(=O)CN1C(=O)CSc2ccc(S(=O)(=O)N3CCCCC3)cc21,-3,8,-3,7,1.5,-17,4976
CCC(=O)c1cn(CC(=O)OC)c2ccccc12,5,13,6,0,1.8,-24,2401
COc1ccc(C(CNC(=O)C(C)Oc2ccc(Br)cc2)N2CCCCC2)cc1 (centres undefined),x,4,4,2,6.1,-11,3644
COC(=O)CC1COc2ccccc2N1C(=O)c1ccc(Br)cc1 (centres undefined),-1,14,6,4,10,-13,4286
O=C(NCc1cn2ccccc2n1)c1ccccc1,-1,3,-3,6,0.7,2,3524
O=C(c1ccc(S(=O)(=O)Nc2cccc(C(F)(F)F)c2)cc1)N1CCOCC1,-8,10,-4,3,7.4,-9,5243
Cc1cc(C)cc(NC(=O)C(OC(=O)c2ccc(NC(=O)CC#N)cc2)c2ccccc2)c1 (centres undefined),-3,10,6,3,-8.8,-3,u
CCOc1cc(NC(=O)c2ccccc2C(=O)O)c(OCC)cc1NC(=O)c1ccccc1F,-3,11,7,-5,16,-32,2400
COc1ccc2c(c1)[nH]c1c(C)nccc12,x,-5,-4,6,5.2,19,5987
CC(=O)Nc1ccc(-c2nn[nH]n2)cc1,-2,7,-1,1,1.5,-2,4160
O=[N+]([O-])c1cc(C(F)(F)F)c(Cl)cc1N1CCN(CCO)CC1,-2,-7,-7,3,4.4,-24,2036
Cc1ccn2c(=O)nc(SCC(=O)N3CCCCCC3)nc2c1,2,-8,-4,-1,1.9,-22,u
Cc1c(NC(=O)CSc2ccccc2F)c(=O)n(-c2ccccc2)n1C,3,19,6,5,1.7,-11,4640
O=C(C=Cc1ccco1)c1ccc([N+](=O)[O-])cc1,x,24,14,-1,14,-27,3944
O=C(NNC(=S)Nc1ccc(C(=O)O)c(O)c1)c1ccncc1,x,x,x,0,2.4,-32,3949
O=C(NC1=NCCS1)c1cccc2ccccc12,-4,3,-3,23,7.3,-31,3249
CC(C)NC(=S)Nc1cccc2cnccc12,9,4,-2,-3,4.1,-6,9368
O=C(CCN1CCOCC1)NNC(=O)Nc1cccc([N+](=O)[O-])c1,-3,-7,0,-4,-4.8,-6,4352
CC1Cn2c(COc3ccccc3)nnc2S1 (centres undefined),0,x,x,-7,-0.6,-18,6250
CC(=O)NC(CC(C)C)C(=O)NC(Cc1ccccc1)C(N)=O (centres undefined),-3,8,20,1,1.5,-26,x
COCCn1c(=NC(=O)CSCC(=O)N2CCOCC2)sc2ccccc21,14,2,4,6,2.2,-5,5382
CN1/C(=C\C(=O)Nc2ccc(Cl)cc2)C(C)(C)c2ccccc21,1,-2,-15,97*,94*,-14,2270
CC(CSc1nnnn1-c1ccccc1)Cn1c(N2CCN(C)CC2)nc2c1c(=O)[nH]c(=O)n2C (centres undefined),5,16,6,4,-4.4,-3,3213
CCn1c(SCc2nc3ccccc3c(=O)[nH]2)nnc1C(C)NC(=O)c1ccccc1 (centres undefined),-1,1,-4,0,0.7,-25,4713
Cn1c(N)c(C(=O)COC(=O)/C=C/c2ccc(Cl)cc2)c(=O)n(C)c1=O,x,3,-3,3,5.9,-15,3674
C#CCOCCOCCOCCNc1nc(N2CCN(C(=O)CCCCCCCCCCNC(=O)C(CO)n3cc(CCCSC)nn3)CC2)nc(N2CCN(C(=O)CCCCCCCCCCNC(=O)C(CCC(=O)O)n3cc(CCCCCN)nn3)CC2)n1 (centres undefined),x,-13,3,4,5.2,x,x
COc1ccc(/C=C/c2nnc(NC(C)=O)s2)cc1,3,0,-15,-9,-3.3,-63,3666
NC(=O)C1=C[C@H](C2CCCCC2)C[C@H](OCc2ccc(CO)cc2)O1,1,x,x,x,x,-61,3747
COc1ccc(NC(=O)CCCN2C(=O)CN(C)C2=O)c(OC)c1,x,7,3,-2,-0.6,-23,8265
Cc1nn(Cc2ccc(C(=O)Nc3ccccc3C(F)(F)F)o2)c(C)c1Br,-1,14,7,-16,5.3,-9,23948*
CC(=O)Nc1ccc(OC(=O)c2cccnc2)cc1,-12,1,4,-2,6.9,-6,4295
O=C(c1ccc(Cn2c(=O)[nH]c3ccccc3c2=O)cc1)N1CCN(c2ccc(Cl)cc2)CC1,-3,7,6,6,1.7,0,3738
CCOC(=O)N1CCC(NC(=O)c2oc3c(c2C)-c2[nH]ncc2CC3)CC1,2,4,18,-2,0.2,-39,20954*
O=C(Nc1ccc(C(=O)O)cc1)/C(=C\c1ccc(F)cc1)NC(=O)c1ccco1,-9,1,15,0,2.4,13,5848
CC(=O)c1ccc(S(=O)(=O)N2CCC3(CC2)OCCO3)cc1,-6,2,-3,4,3.2,-11,5274
CCC(=O)c1ccc(OCC(=O)N(CC)CC2COc3ccccc3O2)cc1 (centres undefined),x,6,13,8,0.9,-1,x
O=C(NC(=S)NC12CC3CC(CC(C3)C1)C2)c1ccc(F)cc1,x,-1,5,60,-1.6,x,3793
O=C(CN1C(=O)c2ccc([N+](=O)[O-])cc2C1=O)NCCC1=CCCCC1,-5,11,-2,2,2.9,-7,u
CN(C)c1ccc(NC(=O)CCCCCn2nnc3ccccc3c2=O)cc1,4,15,-3,6,1.0,-24,3898
O=C(CCn1c(=S)[nH]c2ccccc2c1=O)NCCSCc1ccccc1,2,15,6,-1,3.8,-15,4295
CC(Sc1cccc[n+]1[O-])C(=O)Nc1cc(Cl)c(Cl)cc1Cl (centres undefined),x,4,8,1,9.2,-13,2858
CCn1nnnc1SCC(=O)NC1Cc2ccccc2C1,-5,10,-9,7,3.9,-25,4802
Cc1cccc(C(=O)NC2CC(C)(C)NC(C)(C)C2)c1,-6,x,x,-3,3.2,-12,2321
Cc1nn(-c2ccccc2)c(C)c1/C=N/NC(=O)c1cc(-c2cccs2)[nH]n1,39,x,x,x,x,68*,1994
O=S(=O)(c1cccc(C(F)(F)F)c1)N1CCN(c2cnccn2)CC1,-16,0,14,3,8.6,-16,4335
C/C(=N\NC(=S)Nc1cccc(C)c1)c1cc2ccccc2o1,9,x,x,x,x,-22,4678
Cc1cc(NC(=O)c2ccc(S(=O)(=O)N3CCOCC3)cc2)nc2c1c(=O)oc1ccccc12,-3,x,x,5,-1.0,x,x
O=C(Cn1ncc2ccccc21)N1CCc2ccccc21,6,x,x,-7,2.7,-14,4865
COc1cc2c(cc1NC(=O)C(C)Sc1ccc(C)cc1)oc1ccccc12 (centres undefined),-9,12,5,65,1.7,9,7316
Cc1ccc(-n2ncc3c2CCCC3NC(=O)CCC2=NNC(=O)CC2)cc1C (centres undefined),-8,5,10,6,2.1,-8,4489

# Source: PubChem BioAssay
